Vaccinia Venus – vaccinia inhibition (Venus reporter); Vaccinia virus Venus reporter expression, fluorescence; Potency, µM (titrated, usually from 36.5 µM), for inactives: top-dose activity change, negative = inhibition, hits mostly inhibitors; 330,000 compounds, 0.46% hits; AID 720580; active means well fitted inhibition curve with a large enough effect; inconclusive means small, poorly fitted or top-dose-only effect; inactive means no such curve, though single readings can be large or run the other way; tested in A549 cells; also: nearly all actives have a fitted effect of over 30% in size; inactives centre near -10
VACV mCherry inh – inhibitors of vaccinia virus infection (mCherry reporter signal); Vaccinia virus mCherry reporter infection, fluorescence; about a quarter of the inactives have no number; Potency, µM (doses to about 36.5 µM), for the others: top-dose activity change, negative = inhibition, hits mostly inhibitors; 310,000 compounds, 0.63% hits; AID 720579; active = well fitted inhibition curve with a large enough effect; inconclusive = small, poorly fitted or top-dose-only effect; inactive = no such curve, though single readings can be large or run the other way; tested in A549 cells; also: nearly all actives have a fitted effect of over 35% in size; inactives centre near -10
* hit, by the source's call; i = inactive; ? = inconclusive; / = not tested or not shown; & = joins results of further samples. % is scaled to controls: 0 for no effect and ±100 for the full control effect; potency is read from the fitted curve at half-maximal effect.

| item | Structure | Vaccinia Venus | VACV mCherry inh |
| --- | --- | --- | --- |
| 1 | Cc1ccc([C@H]2C[C@H](n3cc(COC(=O)c4ccccc4)nn3)[C@@H](O)CN2CC2CCCCC2)cc1 | -10.8% | -11.1% |
| 2 | C=C1NN(C)C(=O)N1c1ccc(OC)cc1 | -13.5% | -19.3% |
| 3 | O=C(N/C(=C\c1ccc(Br)cc1)c1nc2ccccc2[nH]1)c1ccco1 | -28.7% | ? |
| 4 | COc1ccc(C2/C(=C(/O)c3ccc(Cl)cc3)C(=O)C(=O)N2CCN2CCOCC2)c(OC)c1 (stereo not drawn) | 0.0% | i |
| 5 | COc1ccccc1C(=O)Oc1ccc(C(c2c(C)[nH][nH]c2=O)c2c(C)[nH][nH]c2=O)cc1 | 8.1% | -12.6% |
| 6 | O=C1C(=C(I)I)c2ccccc2-c2ccccc21 | ? | ? |
| 7 | CCN(CC(=O)NCCCN1CCOCC1)S(=O)(=O)c1ccc(Cl)cc1 | -11.6% | -10.0% |
| 8 | Cc1nn(S(=O)(=O)c2ccc(Br)cc2)c(C)c1S(=O)(=O)N1CCCCCC1 | -1.1% | 1.4% |
| 9 | COc1ccc(CN2C[C@@H](CO)O[C@@H](n3cnc4c(NC5CCC5)ncnc43)C2)cc1 | -6.1% | i |
| 10 | CC1(C)CC(=O)C=C(Nc2ccc([N+](=O)[O-])cc2)C1 | -6.0% | -11.2% |
| 11 | NC1=NC(=Nc2cccc(Cl)c2)c2ccccc21 | ? | -17.7% |
| 12 | O=C(Nc1nccs1)c1ccc2c(c1)C(=O)N(Cc1cccnc1)C2=O | -11.8% | -8.7% |

Some values from above:
Cc1ccc([C@H]2C[C@H](n3cc(COC(=O)c4ccccc4)nn3)[C@@H](O)CN2CC2CCCCC2)cc1 in Vaccinia Venus shows -10.8%
O=C(Nc1nccs1)c1ccc2c(c1)C(=O)N(Cc1cccnc1)C2=O in Vaccinia Venus shows -11.8%
Cc1nn(S(=O)(=O)c2ccc(Br)cc2)c(C)c1S(=O)(=O)N1CCCCCC1 in Vaccinia Venus shows -1.1%
COc1ccc(CN2C[C@@H](CO)O[C@@H](n3cnc4c(NC5CCC5)ncnc43)C2)cc1 in Vaccinia Venus shows -6.1%
O=C(N/C(=C\c1ccc(Br)cc1)c1nc2ccccc2[nH]1)c1ccco1 in Vaccinia Venus shows -28.7%
COc1ccccc1C(=O)Oc1ccc(C(c2c(C)[nH][nH]c2=O)c2c(C)[nH][nH]c2=O)cc1 in VACV mCherry inh shows -12.6%

(further entries)
| item | Structure | Vaccinia Venus | VACV mCherry inh |
| --- | --- | --- | --- |
| 13 | Cc1ccc(Cn2ccc(-c3cnc(-c4ccccc4)s3)n2)cc1 | -20.2% | / |
| 14 | COC(=O)[C@]1(C)N[C@H](CN(C)C(=O)Nc2ccc(C)cc2)[C@@H]2C(=O)N(Cc3ccccc3)C(=O)[C@@H]21 | -8.1% | i |
| 15 | CCCCn1c(N)c(N(CCOC)C(=O)c2sc3cc(F)ccc3c2Cl)c(=O)[nH]c1=O | -6.4% | i |
| 16 | CC(C)OCCCN(Cc1ccco1)C(=O)c1cc2c(s1)-c1ccccc1OC2 | 1.2% | -8.5% |
| 17 | O=C(NCCCN=C1NS(=O)(=O)c2ccccc21)c1ccc(F)cc1 | -10.0% | i |
| 18 | FC(F)(F)c1nnc2ccc(-n3ccnc3)nn12 | -7.4% | -8.2% |
| 19 | Cc1cncc(NCc2ccc3c(c2)OCO3)n1 | 8.9% | i |
| 20 | COc1ccc(C2C3=C(COC3=O)Oc3cc4c(cc32)OCO4)cc1OC (stereo not drawn) | ? | ? |
| 21 | CCCC(CCC)C(=O)NCCN1CCOCC1 | ? | / |
| 22 | CCc1cccc(N(CC(=O)NCc2ccc(F)cc2)C(=O)c2csnn2)c1 | -7.5% | -10.3% |
| 23 | CCCn1c(C)cc(C(=O)COc2ccc(C)nc2[N+](=O)[O-])c1C | -5.9% | -10.6% |
| 24 | O=C(CCS(=O)(=O)c1ccccc1)Nc1nc2ccc(F)cc2s1 | ? | ? |
| 25 | CCC(=O)c1c[nH]c(C(=O)NCc2cccs2)c1 | -7.5% | -9.1% |
| 26 | O=C(NC(CC1CCCCC1)C(=O)O)c1ccccc1 (stereo not drawn) | -12.9% | i |
| 27 | CC(NC(=O)c1ccc(N(C)C)cc1)C(c1cccs1)N1CCN(C)CC1 (stereo not drawn) | -13.1% | i |
| 28 | CC1(C)Cc2c(cnn2-c2ccc(F)cc2)C(NC(=O)c2ccoc2)C1 (stereo not drawn) | -9.5% | -8.7% |
| 29 | COC(=O)C1=C(c2ccc(C(C)=O)cc2)C[C@@H]2CC[C@H]1N2C(=O)NCc1ccc2c(c1)OCO2 | -6.5% | i |
| 30 | CCCN(C(=O)CCNC(=O)Cn1cnc2ccccc2c1=O)c1cccc(C)c1 | -19.1%&-2.6% | -23.6%&-3.0% |
| 31 | O=C(Nc1ncc(Cc2ccccc2)s1)C1CCN(C(=O)c2ccco2)CC1 | -23.0% | -8.3% |
| 32 | COc1cc(C(=O)Nc2ccc(OCC(=O)N3CCOCC3)cc2C)cc(OC)c1OC | 8.3% | -12.4% |
| 33 | Cc1ccc(C)c(CN2C(=O)c3ccccc3S(=O)(=O)c3ccc(C(=O)NCc4ccccc4)cc32)c1 | -6.8% | -11.3% |
| 34 | COc1cc(F)ccc1-c1cc(C(=O)Nc2ccc(NC(C)=O)cc2)[nH]n1 | 3.2% | i |
| 35 | O=C1c2cccc([N+](=O)[O-])c2C(=O)N1c1cccnc1 | -9.9% | i |
| 36 | COc1ccccc1/C=N/NC(=O)COCC(=O)N/N=C/c1ccccc1OC | -3.9% | -2.3% |

Overlap with the part before: 4 entries, followed by the next part.
| item | Structure | Vaccinia Venus | VACV mCherry inh |
| --- | --- | --- | --- |
| 33 | Cc1ccc(C)c(CN2C(=O)c3ccccc3S(=O)(=O)c3ccc(C(=O)NCc4ccccc4)cc32)c1 | -6.8% | -11.3% |
| 34 | COc1cc(F)ccc1-c1cc(C(=O)Nc2ccc(NC(C)=O)cc2)[nH]n1 | 3.2% | i |
| 35 | O=C1c2cccc([N+](=O)[O-])c2C(=O)N1c1cccnc1 | -9.9% | i |
| 36 | COc1ccccc1/C=N/NC(=O)COCC(=O)N/N=C/c1ccccc1OC | -3.9% | -2.3% |
| 37 | O=C(NCC1(O)CCCCC1)C1CCC(=O)N(Cc2cccc(C(F)(F)F)c2)C1 (stereo not drawn) | -15.0% | -2.7% |
| 38 | COc1ccc(S(=O)(=O)N2CCN(C(=O)NC3CCCCC3)CC2)cc1 | -5.0% | -7.0% |
| 39 | CCCCNc1c(-c2ccc(OC)c(SC(C)CC)c2)nc2cnccn12 (stereo not drawn) | -17.6% | ? |
| 40 | O=S(=O)(c1ccc(F)cc1)N1CCCN(Cc2c(F)cccc2F)CC1 | -10.4% | -6.1% |
| 41 | O=C(CSc1ncc2c(n1)-c1ccccc1N(Cc1ccc(F)cc1)S2(=O)=O)NCCc1ccccc1 | ? | ? |
| 42 | O=C(NCCN1C(=O)S/C(=C\c2cccc(Cl)c2Cl)C1=O)C1=COCCO1 | ? | -17.5% |
| 43 | CCOC(=O)c1ccc(NC(=O)CSc2nc3ccccc3c(=O)n2CCNC(C)=O)cc1 | -5.1% | -5.3% |
| 44 | O=C(CCC(=O)N1CCC2(CC1)OCCO2)Nc1nnc(C(F)(F)F)s1 | -13.4% | -17.6% |
| 45 | COc1cc(/C=C(\C#N)C(=O)N2CCOCC2)ccc1OCc1ccccc1 | -16.8% | -15.3% |
| 46 | COCCNc1nc(-c2ccc(N(C)C)cc2)nc2ccccc12 | 10.9% | 6.3% |
| 47 | CCN(CC)CCCNC(=O)c1ccc2nc(CCc3ccccc3)oc2c1 | -4.4% | -4.4% |
| 48 | O=C(Nc1ccc(S(=O)(=O)N2CCCC2)cc1)C1CCN(S(=O)(=O)c2ccc(F)cc2)CC1 | ? | -28.4% |
| 49 | CCCOc1ccc(/C=N/NC(=O)C2CCCN2S(=O)(=O)c2ccc(Cl)cc2)cc1 (stereo not drawn) | -28.6% | / |
| 50 | CC(=O)Nc1ccc(NC(=O)CC23CC4CC(CC(C4)C2)C3)cc1 | -16.4% | -11.3% |
| 51 | CCOC(=O)c1sc(NC(=O)CC)nc1C | -11.6% | i |
| 52 | Cc1ccc(CCNC(=O)CCCn2nc(C)c3c(C)n(-c4ccc(C)cc4)nc3c2=O)cc1 | -15.5%&-24.1% | -5.0%&-9.2% |
| 53 | C=CCn1c(O)c(C(C)=NCCCN2CCOCC2)c(=O)[nH]c1=O | -9.1% | -13.0% |
| 54 | COc1ccc(C)cc1NC(=O)Nc1ccncc1 | -17.6% | -22.4% |
| 55 | O=C(NCCN1CCOCC1)C1(C(F)(F)F)C/C(=C\Cc2ccccc2)CCCO1 (stereo not drawn) | -4.1% | i |
| 56 | COc1ccc(NC(=S)N2CCN(Cc3ccco3)CC2)c(OC)c1 | -10.5% | -0.9% |
| 57 | O=C(Nc1nnc(Cc2ccccc2)s1)C1CCN(C(=O)c2ccco2)CC1 | -16.2% | i |
| 58 | COC(=O)C(C#N)c1nc2ccccc2nc1N1CCCC1 (stereo not drawn) | -17.8% | / |
| 59 | O=C(O)CC1S/C(=N\N=C/c2ccccc2O)N(c2ccc(O)cc2)C1=O (stereo not drawn) | -20.3% | i |
| 60 | CC(C(=O)O)N1C(=O)/C(=C/c2cccn2C)SC1=S (stereo not drawn) | -4.7% | i |

Shown with two lines to a compound: entries from further up.
Fields – Vaccinia Venus | VACV mCherry inh
(50) CC(=O)Nc1ccc(NC(=O)CC23CC4CC(CC(C4)C2)C3)cc1
 : -16.4% | -11.3%
(51) CCOC(=O)c1sc(NC(=O)CC)nc1C
 : -11.6% | i

(listing goes on)
| item | Structure | Vaccinia Venus | VACV mCherry inh |
| --- | --- | --- | --- |
| 61 | COc1cccc(N2CCN(c3nc(C)c(C)c(=O)[nH]3)CC2)c1 | -14.9% | i |
| 62 | COc1cc(N=C2C(=O)N3CCCc4cccc2c43)cc(OC)c1 | -4.2% | -13.2% |
| 63 | O=C(N/N=C\c1cccc(Cl)c1)c1n[nH]c2c1CCCC2 | ? | -1.1% |
| 64 | CC(C)(C)OC(=O)N1CCCC(C(=O)Nc2ccc(C(=O)NCc3ccccc3)cc2)C1 (stereo not drawn) | -18.7% | i |
| 65 | CC1(C)Cc2c(sc(NC(=O)COc3cccc4ccccc34)c2C#N)C(C)(C)N1 | -24.1% | -14.7% |
| 66 | CCc1ccccc1NC(=O)CN1CCN(C(=O)c2cc(C3CC3)nn2-c2ccccc2)CC1 | -22.5% | i |
| 67 | O=C(OCCCN1C(=O)c2ccccc2C1=O)c1ccco1 | -8.0% | -23.1% |
| 68 | O=c1[nH]c(C2CCN(S(=O)(=O)c3ccccc3)CC2)nc2c1nnn2Cc1cccc(Cl)c1 | -20.7% | -2.2% |
| 69 | Cc1cccc(C(C)C)c1NC(=O)C1CN(S(=O)(=O)c2ccccc2)CCN1S(=O)(=O)c1ccccc1 (stereo not drawn) | -8.4% | -10.1% |
| 70 | O=C(C=Cc1cccs1)c1cccs1 | 5.5% | i |
| 71 | COCCN(CCOC)Cc1cc(=O)oc2cc(OC)ccc12 | 7.2% | 14.0% |
| 72 | O=C(O)c1cccc(-n2sc3ccccc3c2=O)c1 | -12.0% | -3.4% |
| 73 | N#Cc1ccc(OCC(=O)OCC(=O)NCCC2=CCCCC2)cc1 | -6.0% | -12.6% |
| 74 | C=CCn1c(=S)[nH]c2ccc(Br)cc2c1=O | -15.6% | -2.5% |
| 75 | Cc1ccc([C@H]2C[C@@H](O)[C@H](n3cc(COC(=O)c4ccccc4)nn3)CN2Cc2cccs2)cc1 | -11.8% | -14.8% |
| 76 | Cc1ccc(Cl)c(OCC(=O)NC2CCN(Cc3ccccc3)CC2)c1 | -16.9% | -28.8% |
| 77 | COc1cc(C(=O)N2CCN(C(=O)c3cccc4ccccc34)CC2)cc(OC)c1OC | -9.6% | -10.2% |
| 78 | CCC1=NN2C(=N)/C(=C\c3cccn3-c3ccc(C)c(C)c3)C(=O)N=C2S1 | -18.7% | i |
| 79 | Cc1cccc(Nc2nc(-c3c(C)nc4ccccn34)cs2)c1 | ? | ? |
| 80 | Cc1cc(NS(=O)(=O)c2ccc(Nc3nc(-c4ccc(C)c(C)c4)cs3)cc2)no1 | -15.1% | ? |
| 81 | COc1ccc(OCC#CCN2CCCCCC2)cc1 | 2.3% | -7.3% |
| 82 | NC(=O)NC(=O)COC(=O)c1ccccc1Oc1ccccc1 | -2.3% | / |
| 83 | CCCN1CCN(C(=O)Cn2ncc3c([nH]c4ccc(C)cc43)c2=O)CC1 | -15.4% | -18.8% |
| 84 | COc1cccc(C(c2nnnn2Cc2ccco2)N2CCN(Cc3ccccc3)CC2)c1OC (stereo not drawn) | -6.4% | -0.3% |
| 85 | CC(C)CCN(C(=O)c1cn2ccccc2n1)c1c(N)n(Cc2ccccc2)c(=O)[nH]c1=O | -5.6% | i |
| 86 | COc1ccc(-c2nc(CNC(=O)Nc3ccccc3)c(C)o2)cc1 | -13.2% | -7.8% |
| 87 | CCn1c(CNC(=O)C2CCCCC2)cc2cc(C)ccc21 | -9.3% | -1.0% |
| 88 | COc1ccccc1OCCOCCOc1c(C)cc(C)cc1Br | -14.7% | -9.6% |
| 89 | COc1ccc(S(=O)(=O)NCCc2cn3ccsc3n2)cc1OC | -4.0% | -10.6% |
| 90 | COC(=O)c1ccc(NC(=O)c2cn(-c3ccccc3)nc2-c2ccncc2)cc1 | -25.3% | / |

Assay outcomes as filed in PubChem.
